Source: PubChem (National Center for Advancing Translational Sciences (NCATS))
D2 ag: agonists of human D2 dopamine receptor (beta-arrestin). DiscoveRx PathHunter D2 beta-arrestin, luminescence, 90 min; 100% = 57 uM dopamine signal. 360,000 tested, 0.084% active. activation, % (test concentration not listed); in the data active = activation above about 40%; inconclusive = about 15% to 40%; inactive = below about 15%; also: compound concentration not given in the record; the text of the record calls up to 30% inactive
Target sequence (P14416 whole entry, looked up): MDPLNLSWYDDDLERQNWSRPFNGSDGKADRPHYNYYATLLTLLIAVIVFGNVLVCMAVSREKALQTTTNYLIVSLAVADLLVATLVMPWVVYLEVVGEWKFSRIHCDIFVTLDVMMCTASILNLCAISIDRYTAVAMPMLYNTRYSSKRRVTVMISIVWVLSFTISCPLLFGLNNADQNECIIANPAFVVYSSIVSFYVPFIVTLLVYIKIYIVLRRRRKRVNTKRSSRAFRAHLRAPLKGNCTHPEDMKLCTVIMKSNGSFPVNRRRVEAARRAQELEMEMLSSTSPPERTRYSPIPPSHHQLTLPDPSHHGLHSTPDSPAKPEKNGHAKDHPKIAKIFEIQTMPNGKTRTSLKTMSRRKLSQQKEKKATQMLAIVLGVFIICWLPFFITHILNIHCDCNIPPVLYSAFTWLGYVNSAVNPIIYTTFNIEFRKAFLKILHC
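DiscoveRx PathHunter D2 beta-arrestin cells (2,100/well) attached overnight, then compound-stimulated 90 min at 37 C in HBSS/10 mM HEPES/0.1% Tween-20 buffer; beta-galactosidase complementation read by luminescence after 1 h at ambient temperature. Dopamine 57 uM final (EC100) as control.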
PINK1 modulator: modulators of PINK1 expression | PINK1 immunofluorescence, high-content cytometry, 24 h | Potency, µM (titrated, usually from 76.6 µM), inactives show at the highest dose activation (PINK1 increase), usual class: activators | 410,000 tested, 0.2% active; active = well fitted activation curve with a large enough effect; inconclusive = small, poorly fitted or top-dose-only effect; inactive = flat fitted curve, though single readings scatter; cell line not stated here;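 also: potency is read from the fitted curve at half-maximal effect; % of control where 0% means no effect; nearly all actives have a fitted effect of over 65% in size; a mitochondrial uncoupler was the plate control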
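A stable cell line was treated with compounds at 5 concentrations for 24 hours, with CCCP as control. PINK1 levels and mitochondrial localization were measured by immunofluorescence with mitochondrial, cell and nuclear markers after fixation, read by laser-scanning cytometry.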
gsp agonist: gsp mutant agonism; gsp mutant cells, cAMP HTRF, 30 min; control for the full effect not named in the record; Potency, µM (titrated, usually from 76.9 µM), inactives show at the top dose activation (cAMP increase), actives largely listed as activators; 340,000 tested, 0.13% active; AID 624287; active = well fitted activation curve with a large enough effect; inconclusive = small, poorly fitted or top-dose-only effect, or another doubt; inactive = no such curve, though single readings can be large or run the other way; cell line not stated here;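 also: phosphodiesterase inhibitor Ro 20-1724 added with compounds to block cAMP breakdown; potency is read from the fitted curve at half-maximal effect; nearly all actives have a fitted effect of over 60% in size; about a fifth of the inactives were tested at one dose only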
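Cells stably selected in G418 were plated at 2000/well, grown 16-24 hr, then given compounds in DMSO with the PDE inhibitor […] (300 uM solution added) for 30 min at 37C; cAMP was read by HTRF.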
gsp antag: gsp mutant antagonism; 340,000 tested, 0.4% active; gsp-mutant cells, cAMP HTRF, 30 min; control for the full effect not named in the record; Potency, µM (top dose mostly 76.9 µM), inactives show at the top dose activity change, negative = inhibition, most hits filed as inhibitors; active = falling curve of any shape with a large fitted effect; inconclusive = falling curve, mostly with a smaller effect; inactive = flat or rising curve; cell line not stated here;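 also: intracellular cAMP measured with PDE inhibitor Ro 20-1724 present during compound exposure; potency is read from the fitted curve at half-maximal effect; % is scaled to controls: 0 for no effect and ±100 for the full control effect; nearly all actives have a fitted effect of over 65% in size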
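G418-selected cells were plated in DMEM/10% FBS for 16-24 h at 37C, then treated with compounds plus the PDE inhibitor […] (300 uM solution added) for 30 min at 37C. Intracellular cAMP was measured by HTRF after 30 min lysis at room temperature.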
Menin MLL FP FL: menin-MLL binding inhibition, fluorescein peptide. Fluorescence polarization, fluorescein-MLL peptide displacement from menin. FP activity change, % at 61.4 µM. 290,000 tested, under 10 active. AID 1766; inconclusive = falling polarisation curve, or a change in total fluorescence; inactive = total fluorescence flat and polarisation flat or rising; no compound was filed as active; the % refers to the polarisation; negative = inhibition;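 also: % of control where 0% means no effect; inhibitors lower the polarisation; unlabelled MLL peptide was the positive control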
ClpP mod: qHTS Assay for Activators of ClpP; AID 651965, 2013; 340,000 tested, 1.9% active; Potency, µM (doses to about 57.5 µM), for the others: at the top dose activity change, negative = active; ATP-dependent Clp protease proteolytic subunit (Bacillus subtilis (strain 168)), P80244; purified B. subtilis ClpP, FRET peptide cleavage, 20 min; active = well fitted falling curve with a large enough effect; inconclusive = small, poorly fitted or top-dose-only effect; inactive = no such curve, though single readings can be large or run the other way; also: potency is read from the fitted curve at half-maximal effect; the source files actives as falling curves though it sought activators and does not explain the sign; nearly all actives have a fitted effect of over 65% in size; many hits overshoot -100%
Target sequence (P80244 whole entry, looked up): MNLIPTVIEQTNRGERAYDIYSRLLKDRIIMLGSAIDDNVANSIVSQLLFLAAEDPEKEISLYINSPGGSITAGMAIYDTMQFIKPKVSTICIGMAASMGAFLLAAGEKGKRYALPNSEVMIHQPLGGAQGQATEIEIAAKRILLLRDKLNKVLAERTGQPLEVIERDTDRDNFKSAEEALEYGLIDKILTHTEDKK
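FRET quenching reversal measured ClpP activation: 10 microg/mL B. subtilis ClpP at pH 8 with the FRET-FV decapeptide, read at 430 nm after 320 nm excitation. The 20-min minus 0-min signal was scaled between DMSO/no-enzyme wells and ADEP (5.8 microM final).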
Sfp inh: inhibitors of Bacillus subtilis Sfp phosphopantetheinyl transferase. Q9F4F7. Biochemical Sfp PPTase activity, qHTS. Potency, µM, for the others: max response, negative = inhibition, most hits filed as inhibitors. 310,000 tested, 3.5% active. AID 1490; active = well fitted inhibition curve with a large enough effect; inconclusive = small, poorly fitted or top-dose-only effect, or another doubt; inactive = no such curve, though single readings can be large or run the other way;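 also: the enzyme is Sfp with the accession as filed and its product quenches rhodamine fluorescence; potency is read from the fitted curve at half-maximal effect; 0% = enzyme reaction without inhibitor and -100% = no enzyme wells; top concentration of the series not given in the record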
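Compounds were incubated with enzyme (final 15 nM) for 15 min at room temperature before substrate addition started the reaction. Fluorescence at 525 nm excitation, 598 nm emission was recorded immediately and after 30 minutes.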
Active calls of the source: *; ? = inconclusive; . = not tested or not shown; & = joins results of further samples; [ ] = remark or other dose.

SMILES	D2 ag	PINK1 modulator	gsp agonist	gsp antag	Menin MLL FP FL	ClpP mod	Sfp inh
CCN(CC)S(=O)(=O)c1cc(C(=O)OCC(=O)Nc2cccc(C)c2C)ccc1F	2.4	1.3%	13.9%	-2.1%	4.1	-3.6%	6.9%
CC(C)OC(=O)c1cc2c(ccn2C)n1CC(=O)N1CCC(Cc2ccccc2)CC1	-4.7	?	19.3%	?	1.6	-12.0%	-7.6%
C#CCOCCOCCOCCNc1nc(N2CCN(C(=O)CCCCCCCCCCNC(=O)[C@@H](CCSC)n3cc(CCO)nn3)CC2)nc(N2CCN(C(=O)CCCCCCCCCCNC(=O)[C@H](CCCN=C(N)N)n3cc(C[C@@H](C)CC)nn3)CC2)n1	1.5	0.8%	.	6.7%	.	0.4%	.
COc1ccc(/C=N/N2CCN(C)CC2)cc1OC	4.9	-0.1%	-5.6%	-12.1%	-1.0	-0.4%	6.8%
CC(C)C(NC(=O)c1ccccc1F)C(=O)NCc1ccccc1 (stereo unspecified)	-8.5	-2.3%	-13.1%[15.4 µM]	10.1%	-0.1	0.0%	15.6%
COc1cccc(OC)c1C(=O)Nc1cccc(-n2cnnn2)c1	0.5	1.3%	-1.7%	-1.8%	-1.9	-1.4%	14.2%
Cc1ccc(S(=O)(=O)N(C)CC(=O)O/N=C(\N)c2cccc(Br)c2)cc1	-1.6	-1.3%	-5.2%	-13.8%	.	-2.7%	7.8%
CC(C)(C)OC(=O)N1CCc2onc(-c3ccc(N)cc3)c2C1=O	-2.1	1.3%	-93.1%[inhibitor]	.	.	1.2%	.
COc1cccc2sc3cc(C#CC4(O)CCCCC4)ccc3c(=O)c12	?	-1.0%	.	-13.6%	.	-0.9%	.
COc1cc(O)cc2cc3c(c(O)c12)C(=O)CC(C)(O)O3 (stereo unspecified)	3.7	-0.2%	.	-3.1%	?	1.2%	7.9%
COc1ccc(N2CCN(C(=O)c3ccc(S(=O)(=O)N4CCCC4)cc3)CC2)cc1	1.4	0.5%	-2.8%	5.2%	.	.	12.9%
O=C(Cc1ccc(Cl)cc1)SCc1ccccc1	-1.4	0.8%	-3.5%	2.2%	.	-1.4%	.
Cc1ccc(N2CC(O)=C(c3ccccc3)C2=N)cc1	-13.8	0.1%	-5.1%[15.4 µM]	.	-0.2	.	22.5%
Cc1ccsc1C(C(=O)NC(C)(C)C)N(Cc1ccco1)C(=O)c1csnn1 (stereo unspecified)	-2.6	-1.0%	3.9%[15.4 µM]	1.4%	-0.1	.	2.6%
CC(C)Cc1nc(SCC(=O)Nc2nnc(CC(C)C)s2)n[nH]1	-0.9	1.4%	-11.5%[15.4 µM]	2.6%	5.6	.	-2.3%
Cc1nnc(SCC(=O)Nn2cnnc2)s1	-2.2	2.0%	-1.4%	7.4%	2.2	1.1%	11.8%
O=C(Nc1ccc(-c2cn3ccsc3n2)cc1)C1CC1	-2.9	-0.5%	-10.2%	7.1%	1.7	0.7%	-22.5%
Nc1ccc(C(=O)c2cccs2)cn1	3.2	-1.1%	-26.8%	0.7%	0.8	-1.9%	18.4%
CCN(C(=O)COC(=O)c1ccc(C=O)cc1)c1c(N)n(Cc2ccccc2)c(=O)[nH]c1=O	0.1	-0.4%	2.5%	3.2%	.	-2.2%	.
CC(C)(C)c1ccccc1NC(=O)c1ccc(-n2cncn2)c([N+](=O)[O-])c1	-2.7	0.2%	-4.2%[15.4 µM]	-18.3%	.	.	.
CC(C)N(C(=S)NCc1ccccc1)C(C)C	-4.5	-0.4%	-185.3%[inhibitor]	-1.4%	1.7	-0.8%	-9.4%
O=C1/C(=C/c2cccc(Br)c2)SC(=S)N1CCC(=O)N(CCO)c1ccccc1	3.7	1.8%	-19.4%	-32.1%	-1.5	-0.8%	1.1%
NC1=CC(=O)C(=O)c2cccnc21	11.1	-2.3%	?	.	.	0.1%	.
Cc1cc(-c2nnc(SCC(=O)Nc3ccccc3)n2C)no1	-4.0	-1.5%	0.6%[15.4 µM]	5.5%	7.4	0.3%	29.2%
O=C(CNc1cccc(S(=O)(=O)N2CCCC2)c1)Nc1cccc(Br)c1	4.1	-0.8%	-19.0%	-20.8%	.	-0.9%	.
O=C(Nc1ccc(Cl)cc1)Nc1ccc(N2CCCC2)c(S(=O)(=O)Nc2ccccc2Cl)c1	6.5	2.82µM*	-8.3%	-10.5%	-0.2	-10.0%	34.6%[activator]
CS(=O)(=O)N1CCC[C@@]2(CCN(c3ncccn3)C2)C1	.	0.1%	.	.	-0.6	.	17.3%
CNC(=O)C1(C)CCN1C(=O)c1ccccc1CCc1ccccc1 (stereo unspecified)	-6.8	1.0%	.	.	.	-1.2%	.
Cc1ccc2cc(C)c3nnc(SCC(=O)Nc4nc5c(s4)CCCC5)n3c2c1C	-5.4	7.0%[38.3 µM]	-48.1%[inhibitor]	-7.5%	-2.3	-4.4%	-14.2%
CC(=O)N(c1ccccc1)C(C(=O)c1ccccc1)c1ccccc1 (stereo unspecified)	-3.0	-2.4%	2.3%	-12.1%	.	.	.
CS(=O)(=O)N(CC(=O)N1CCOCC1)c1ccccc1Br	-0.8	0.0%	1.1%	9.1%	0.6	1.4%	12.8%
NC(=O)C1CCN(C(=O)c2ccccc2SCC(=O)NCC2CCCCC2)CC1	-5.5	-1.8%	20.0%	8.2%	.	-5.3%	-1.3%
Cc1cc(=O)[nH]c2ccccc12	-1.6	-1.4%&-0.3%	-20.8%	19.2%	2.2	-17.4%&-6.5%	12.5%
NC(=O)c1cccc(CS(=O)(=O)c2ccc(Cl)cc2)c1	-0.2	-0.6%	-15.7%	5.3%	-4.8	-0.1%	2.4%
CCOc1c(Cl)cc(CNCc2ccncc2)cc1OC	1.9	1.5%	0.0%	-0.9%	0.8	.	21.1%
Cc1cc(OCC(=O)Nc2cnn(CCCC(=O)O)c2)ccc1Cl	1.4	0.0%&6.1%	?	7.0%	8.1	-0.6%	-2.4%
O=[N+]([O-])c1ccccc1/C=N/n1c(C2CCCCC2)n[nH]c1=S	4.9	8.2%	-66.4%	-7.5%	1.0	-3.8%	50.1µM*
O=C(CSC1=NS(=O)(=O)c2cc(F)ccc2N1)NCc1ccccc1	-1.0	-5.6%	-40.0%[inhibitor]	5.5%	.	-3.2%	.
Clc1ccccc1/C=N/N1CCN(Cc2ccccc2)CC1	-0.3	?	-3.0%	5.6%	-3.5	-1.9%	-10.1%
Cc1ccc(C(=O)N/N=C\C2CC=CCC2)cc1[N+](=O)[O-] (stereo unspecified)	-5.3	0.1%	-12.2%	4.8%	.	-0.4%	-11.9%
COCC(=O)N(CCc1ccccc1)Cc1cc2cc(C)ccc2nc1Cl	6.4	-0.1%	?	4.3%	3.0	-4.5%	-2.1%
CCOC(=O)c1cncc(O)c1	-0.4	4.0%	14.0%	16.2%	1.0	-0.7%	7.6%
C=CCNC(=O)c1onc(CSc2ccc(Cl)cc2)c1C(=O)NCC=C	-0.3	?	.	-7.2%	2.3	-1.0%	4.3%
Cn1c(=O)c2c(ncn2CC(=O)Nc2nc(-c3ccc(F)c(F)c3)cs2)n(C)c1=O	-2.9	6.8%	6.4%	6.3%	3.4	-4.5%	21.0%
N#CC(C#N)=C(N)/C(C#N)=C/c1cc(O)c(O)c(O)c1	-2.6	2.9%	.	-1.8%	.	-0.5%	39.8µM*
O=C(O)CCCCCNC(=O)OCC1c2ccccc2-c2ccccc21	-1.3	-1.3%	-3.8%[15.4 µM]	3.3%	6.4	-16.6%	18.7%
COc1cc(/C=N\NC(=O)CC#N)ccc1OC/C=C/c1ccccc1	1.5	3.2%	-72.3%[inhibitor]	-4.0%	-0.9	-17.4%	8.2%
O=c1c2cnn(-c3ccccc3)c2ncn1Cc1cccnc1	0.8	-1.3%	-24.4%	-2.0%	-0.5	-4.8%	22.3%
Cc1cccc(Cc2c(C)nc3c(C(=O)N4CCN(Cc5ccc6c(c5)OCO6)CC4)cnn3c2C)c1	1.0	?	2.0%	-9.9%	3.9	22.4µM*	-8.5%
CC(=O)N1CCN(S(=O)(=O)c2cccc(C(=O)Nc3ccccc3N3CCCCC3)c2)CC1	1.2	3.9%	-50.9%[inhibitor]	-5.4%	.	22.1%	.
CC1Cc2ccccc2N1C(=O)NC1CC(=O)N(c2ccc3c(c2)OCCO3)C1 (stereo unspecified)	-4.5	2.0%	?	0.8%	-3.9	.	15.3%
CCC(C)NCCOCCOc1cc(C)c(Cl)c(C)c1 (stereo unspecified)	-5.0	-0.6%	3.3%[15.4 µM]	6.3%	-1.3	.	15.8%
C[C@@H]1CN([C@@H](C)CO)C(=O)CCCn2nncc2CO[C@H]1CN(C)C(=O)OCc1ccccc1	-5.1	-1.6%	-3.4%	.	.	1.4%	.
Cc1nc(COC(=O)c2cc(O)c3ccccc3c2O)cs1	13.3	2.3%	22.5%	-2.5%	0.8	?	28.2µM*
CN(CC(=O)Nc1ccccc1Br)C(=O)c1ccccc1OCc1ccccc1Cl	-0.1	1.2%	13.7%[15.4 µM]	?	.	.	.
Cc1ccc(-n2nc3c(c2NC(=O)C(C)C)CS(=O)(=O)C3)c(C)c1	-5.3	4.0%	14.8%	2.7%	0.3	.	6.8%
Cc1ccc(C(=O)NCCONC(=O)c2ccc(C)cc2)cc1	-2.3	-0.7%	?	-0.7%	-6.7	-1.8%	1.3%
CN(C)CCCC1(O)c2ccccc2C=Cc2ccccc21	-2.8	-1.1%	20.3%	4.1%	1.9	28.2µM*	-8.9%
C[C@H]1COC(=O)CC/C=C\C[C@H](CC(=O)N(CCO)Cc2ccccc2)C(=O)N1	-2.5	-1.0%	?	-1.1%	.	1.1%	.
CCc1c(C2(O)CCCCC2)[nH]c2cnccc12	-2.7	1.5%	-41.1%[inhibitor]	9.5%	.	3.8%	.
